Bioassay records from PubChem.
PV pol inh: poliovirus RdRp elongation inhibitors, primary screen, biochemical, fluorescence polarization, total intensity; AID 588519, 2011; Genome polyprotein (Poliovirus type 1 (strain Mahoney)), P03300; 150,000 tested, 0.66% active; poliovirus polymerase elongation; hits give low values; % elongation, % (compound at 16.7 µg/mL); in the data active = % elongation below about 90%; note: some results filed as inactive read as strong as hits
Target sequence (P03300 1749-2209 limits assumed): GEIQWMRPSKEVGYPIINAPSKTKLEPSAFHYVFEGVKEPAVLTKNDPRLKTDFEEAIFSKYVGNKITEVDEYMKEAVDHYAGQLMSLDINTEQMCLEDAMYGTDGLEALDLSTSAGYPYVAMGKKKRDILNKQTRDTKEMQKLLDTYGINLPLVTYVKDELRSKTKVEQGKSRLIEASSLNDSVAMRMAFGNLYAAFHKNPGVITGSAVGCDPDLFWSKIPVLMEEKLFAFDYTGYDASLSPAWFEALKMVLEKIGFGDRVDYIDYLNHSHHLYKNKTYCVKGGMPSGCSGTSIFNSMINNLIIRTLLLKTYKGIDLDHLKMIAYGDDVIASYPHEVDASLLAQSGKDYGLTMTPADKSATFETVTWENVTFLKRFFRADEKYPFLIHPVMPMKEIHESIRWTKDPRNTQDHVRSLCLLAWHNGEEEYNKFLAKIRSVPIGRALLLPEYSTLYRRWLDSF
PV pol inh intensity: further read-out of PV pol inh, marked with its call; % elongation; measured here: total intensity read-out; formula for this scale not given here;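 total fluorescence in place of polarization; lower means less elongation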
The depositor's hits bear a star. An excerpt; count on the stated rates, not on these rows.

mol	PV pol inh	PV pol inh intensity
CCOC(=O)c1c(S(=O)(=O)N2CCN(c3cc(Cl)ccc3C)CC2)c(C)n(C)c1C	105	100
COc1ccc(C)cc1NC(=O)N1CCC(CN2CCC(C)CC2)CC1	109	113
CC(=O)c1ccc(NC(=O)CSc2nnc3ccc(-c4ccc(Br)cc4)nn23)cc1	105	114
O=C(OCc1cc(=O)n2nc(C3CCCCC3)sc2n1)c1ccc(F)cc1	106	104
CCCCn1c(SCC(=O)Nc2cccc(OC)c2)nc2c(sc3ccccc32)c1=O	109	103
COc1ccc(C2=C(C)C(=O)N(Cc3ccc(C(=O)Nc4ccc(C)c(C)c4)cc3)S2(=O)=O)cc1	113	113
COc1ccc(-c2nn(-c3cccc([N+](=O)[O-])c3)c3c2cnc2cc4c(cc23)OCO4)cc1	107	110
COc1ccc(CNC(=O)C(CC(C)C)NS(=O)(=O)c2ccc3c(c2)oc(=O)n3C)cc1 (stereo not given)	103	106
O=C(c1ccc(F)cc1)N1CCC(c2nc3ccccc3o2)CC1	106	107
Cc1ccc(NC(=O)CN2c3ccccc3S(=O)(=O)c3ccccc32)cc1F	105	113
Cc1ccc(C2CC(=O)Nc3c2c(C)nn3-c2nc(C)cc(C)n2)c(C)c1 (stereo not given)	108	97
Cc1ccc(OC(=O)CSc2nnc(-c3ccc4c(c3)OCO4)o2)c(C)c1	102	108
CCOC(=O)c1cc(-c2ccccc2)n(CCC(=O)Nc2cc(C)cc(C)c2)c1C	106	104
CCN(C(=O)CN(C)S(=O)(=O)c1ccc2c(c1)c(=O)n(C)c(=O)n2C)c1ccc(OC)cc1	101	104
Cc1nc2c(c(C)c1CCC(=O)NCc1ccc(F)cc1)c(=O)n(C)c(=O)n2C	109	110

The results go on.
mol	PV pol inh	PV pol inh intensity
COc1ccc(S(=O)(=O)Nc2cccc(-c3ccc(N4CCCC4)nn3)c2)c(OC)c1	102	102
COc1ccc(NC(=O)c2cc3c(=O)n(C)c4ccccc4c3s2)cc1Cl	101	102
CCCCOc1ccc(C(=O)Nc2nc3c(s2)CC(C)CC3)cc1 (stereo not given)	100	105
CCCn1c(CN2CCN(c3ccc(OC)cc3)CC2)nc2c1c(=O)[nH]c(=O)n2C	103	108
COc1cc(OC)c(NC(=O)Nc2ccccc2OCc2cc(=O)n3cc(C)ccc3n2)cc1Cl	108	113
O=C(CSc1nc2ccccc2nc1Cc1ccccc1)NCc1ccccc1Cl	113	103
Cc1ccc(S(=O)(=O)C2(C(=O)Nc3ccc(Cl)c(C(F)(F)F)c3)CC2)cc1	109	111
NC(=O)c1ccccc1NC(=O)c1ccc(-c2ccc(Br)cc2)o1	113	116
Cc1ccc(C(C)C)c(OCCSc2nc(-c3cccs3)nc3cc(=O)[nH]n23)c1	101	104
CCOC(=O)CN(Cc1ccccc1)C(C(=O)NC1CCCCC1)c1ccc(C)cc1 (stereo not given)	100	104
CCOC(=O)c1ccc(CN(Cc2ccc(F)cc2)S(=O)(=O)c2ccc(F)c(C(=O)Nc3ccc(Cl)cc3F)c2)cc1	112	110
Cc1nc2ccn(Cc3cccnc3)c(=O)c2cc1C(=O)N1CCN(c2ccccc2)CC1	108	118
CC(NC(=O)c1ccc2c(c1)CCN2S(C)(=O)=O)c1ccccc1 (stereo not given)	105	109
CCc1ccc(OCC2c3cc(OC)c(OC)cc3CCN2C(=O)COc2ccccc2)cc1 (stereo not given)	106	108
Cc1ccc(-n2nc3c(=O)n(CCCC(=O)NCCc4ccccc4Cl)nc(C)c3c2C)cc1	106	113

The list goes on.
mol	PV pol inh	PV pol inh intensity
Cc1ccc(OCC(=O)N(Cc2ccco2)Cc2ccc(C)o2)cc1	104	102
O=C(Nc1cc(-c2ccc(Cl)cc2)no1)c1ccc(F)cc1	110	109
COc1cccc(CNC(=O)c2ccc(CNS(=O)(=O)c3ccc(C)cc3)cc2)c1	106	111
CCCCNc1nc(Oc2ccc(OCC)nn2)nc(N2CCOCC2)n1	112	111
O=C(CN1C(=O)COc2ccc(S(=O)(=O)N3CCCCC3)cc21)NCc1ccccc1Cl	113	104
CCC1CCCCN1CCCNC(=O)CN1C(=O)CSc2ccc(S(=O)(=O)N3CCC(C)CC3)cc21 (stereo not given)	117	118
Cc1cc2c(cc1S(=O)(=O)NCc1ccc(F)cc1)OCCN2C	100	101
O=C(Cn1c(=O)n(-c2ccc(F)c(Cl)c2)c(=O)c2sc3ccccc3c21)NC1CCCC1	105	109
Cc1ccc(-n2cc3c(c2-c2ccccc2Br)c(=O)n(C)c(=O)n3C)cc1N	112	108
COc1cc(C(=O)Nc2ccccc2OCc2cc(=O)n3cc(C)sc3n2)cc(OC)c1OC	112	105
Cn1nnnc1SCCCNCc1ccc(Cl)cc1	111	112
COc1ccc(C(=O)NCC(c2cccnc2)N2CCN(c3ccccc3OC)CC2)cc1 (stereo not given)	110	113
CCCn1c(=O)c2sccc2n2c(CCCC(=O)Nc3ccc(Oc4ccc(Cl)cc4)cc3)nnc12	109	105
CCc1ccccc1NC(=O)c1noc2c1CC(C(C)(C)C)CC2 (stereo not given)	104	109
Cc1c(Cl)cccc1-n1nc(C)c2c(C)cc(=O)n(CC(=O)N3CCCc4ccccc43)c21	103	104

Profiles, quoted from the list. Order of values: PV pol inh, PV pol inh intensity
Entry for Cc1ccc(OCC(=O)N(Cc2ccco2)Cc2ccc(C)o2)cc1 = 104, 102
Entry for Cc1c(Cl)cccc1-n1nc(C)c2c(C)cc(=O)n(CC(=O)N3CCCc4ccccc43)c21 = 103, 104
Entry for Cn1nnnc1SCCCNCc1ccc(Cl)cc1 = 111, 112
Entry for COc1ccc(C(=O)NCC(c2cccnc2)N2CCN(c3ccccc3OC)CC2)cc1 (stereo not given) = 110, 113
Entry for O=C(CN1C(=O)COc2ccc(S(=O)(=O)N3CCCCC3)cc21)NCc1ccccc1Cl = 113, 104

(continued)
mol	PV pol inh	PV pol inh intensity
Cc1cccc(Nc2ncc(NC(=O)c3cccc(F)c3)c(Nc3cccc(C)c3)n2)c1	102	104
CC(=O)N1CCCc2cc(S(=O)(=O)N3CCC(C(=O)NCc4cccc(C)c4)CC3)ccc21	107	111
COc1cccc(N2CCN(c3nc4ccc(C(=O)c5ccccc5)cc4n4c(C)nnc34)CC2)c1	108	111
COc1cccc(Nc2nnc(-c3cc4ccc(O)cc4oc3=O)s2)c1	97	287
Cc1ccccc1CNC(=O)CN1CCSc2ccccc21	107	109
COC(=O)CN1C(=O)CSc2ccc(S(=O)(=O)Nc3ccc(Cl)cc3C)cc21	114	105
Cc1ccccc1COC(=O)c1nn(-c2ccccc2)nc1N	109	113
CCC1CCCCN1C(=O)CSc1nnc(-c2ccc(OC)c(OC)c2)o1 (stereo not given)	109	112
COCCNC(=O)Cn1cc2c(n1)-c1c(oc(C(=O)N3CCCC3)c1C)CC2	103	96
CCn1cc2nc(SCC(=O)Nc3ccc(OC)cc3OC)n(Cc3ccc(Cl)cc3)c(=O)c2n1	105	110
CC1CCN(S(=O)(=O)c2ccc3c(c2)N(CC(=O)Nc2ccc(F)c(Cl)c2)C(=O)CO3)CC1	122	121
Cc1ccc2c(c1)N(C(=O)N1CCC(C(=O)NCc3ccccc3C)CC1)CC(C)O2 (stereo not given)	109	105
Cc1ccc2oc(C(=O)N(Cc3sccc3C)C3CCS(=O)(=O)C3)c(C)c2c1 (stereo not given)	112	109
CC1CCCCN1CCCNC(=O)c1cc(Sc2cccc(Cl)c2)nc2ccccc12 (stereo not given)	106	104
Cc1ccccc1Nc1sc(C(=O)c2ccccc2)c(N)c1S(C)(=O)=O	108	111

Next results.
mol	PV pol inh	PV pol inh intensity
Cn1nnnc1SCCCNCc1cccc(OCc2ccccc2F)c1	101	100
COc1ccc(NC(=O)c2nn(C)c3c2CSc2ccc(C)cc2-3)cc1OC	101	102
Cc1cc(C)c(NC(=O)c2cc(C)nc3c2c(C)nn3-c2cccc(F)c2)c(C)c1	117	113
O=C(O)c1ccc2oc(=O)n(Cc3ccccc3)c2c1	110	114
CC(C)N(C(=O)Cn1cc(S(=O)(=O)Cc2ccc(C(F)(F)F)cc2)c2ccccc21)C(C)C	125	118
COc1ccc(CCNC(=O)Cn2nnc(-c3cccc(C(F)(F)F)c3)n2)cc1OC	108	113
Cc1cccc(CN2CCN(CC(=O)Nc3c(C)cccc3C)S2(=O)=O)c1	113	110
COc1cc(NC(=O)CC(C)n2nc(C)cc2C)cc(OC)c1 (stereo not given)	107	108
Fc1cccc(-c2nnn3c2nc(NCCc2ccccc2)c2ccccc23)c1	109	110
O=c1c(NCc2ccccc2Cl)nccn1-c1ccccc1	107	109
CCOc1ccc(CN2C(=O)c3ccccc3Sc3ccc(C(=O)N4CCN(C)CC4)cc32)cc1	108	113
CCn1cc(CCC(=O)NCc2ccccc2OC)c2ccccc21	108	105
CC(C)(C)c1ccc(OCc2nc3ccccc3n2CCOc2ccccc2)cc1	105	108
COC(=O)c1ccc2c(=O)n(CCCCCC(=O)N3CCN(c4ccc(Cl)cc4)CC3)c(=O)[nH]c2c1	104	91
CCCCn1cc(S(=O)(=O)c2ccc(Cl)cc2)c(=O)c2cc(F)c(N3CCCCC3)cc21	110	110

Molecules listed so far that contain a furan ring, fused or not, in the order listed:
mol	PV pol inh	PV pol inh intensity
NC(=O)c1ccccc1NC(=O)c1ccc(-c2ccc(Br)cc2)o1	113	116
Cc1ccc(OCC(=O)N(Cc2ccco2)Cc2ccc(C)o2)cc1	104	102
COCCNC(=O)Cn1cc2c(n1)-c1c(oc(C(=O)N3CCCC3)c1C)CC2	103	96
Cc1ccc2oc(C(=O)N(Cc3sccc3C)C3CCS(=O)(=O)C3)c(C)c2c1 (stereo not given)	112	109

(further entries)
mol	PV pol inh	PV pol inh intensity
CCOc1ccc(OCC(=O)Nc2nnc3n2CCS3)cc1	108	111
CCc1cccc(NC(=O)CSc2nc3ccsc3c(=O)n2CC)c1	108	112
COc1ccc(CCNC(=O)c2cc(=O)[nH]c3ccc(S(=O)(=O)N4CCCCC4C)cc23)cc1OC (stereo not given)	103	92
CC(C)(C)c1ccc(-c2nc3cc(NC(=O)c4cccc(Br)c4)ccc3o2)cc1	105	107
Cc1ccc2c(c1)c1c(c(=O)n(-c3cccc(Cl)c3)c(=O)n1CC(=O)NCCC1=CCCCC1)n2C	104	107
O=C(Nc1ccc2nc(SCC(=O)N3CCCc4ccccc43)sc2c1)c1ccc(Cl)cc1	106	109
CCc1cccc(NC(=O)C2CCCN(c3ncnc4onc(-c5ccc(F)cc5)c34)C2)c1 (stereo not given)	109	104
CCc1cccc(NC(=O)CN2C=NS(=O)(=O)c3ccccc32)c1	107	108
COc1ccccc1OCC(=O)Nc1nnc2n1CCS2	103	106
COc1ccc(NC(=O)CSc2nnc(NC(=O)Nc3ccccc3)s2)cc1OC	109	100
Cc1ccc(C)c(NC(=O)Nc2csc3c2CCCC3)c1	106	111
Cc1ccc(CCNC(=O)C2CCN(S(=O)(=O)c3ccc4c(ccn4C)c3)CC2)cc1	110	116
COc1ccc2c(c1)c(=O)c(S(=O)(=O)c1ccccc1)cn2CC(=O)Nc1ccc2c(c1)OCO2	110	112
Cc1cnc2c(c1SCC(=O)NCc1ccc(F)cc1)c(=O)n(C)c(=O)n2C	111	112
CC(=O)c1ccc(N2CCN(C(=O)CCC(=O)Nc3ccc4nc(N5CCCCC5)cc(C)c4c3)CC2)cc1	107	106

(continued)
mol	PV pol inh	PV pol inh intensity
O=C(NCc1cccc(F)c1)c1ccc(CN2CC(=O)N3CCCCC3C2=O)cc1 (stereo not given)	107	102
CCn1cc(C(=O)NCCc2ccccc2)c(=O)c2cc(S(=O)(=O)N3CCCCCC3)ccc21	105	107
COc1cc(C(=O)Nc2ccc3oc(-c4ccc(C)c(Br)c4)nc3c2)cc(OC)c1OC	106	108
Cc1ccc(C)c(S(=O)(=O)c2nnn3c2nc(Nc2ccc(F)c(Cl)c2)c2sccc23)c1	106	101
CCOc1ccccc1CNC(=O)CCc1c(C)nn(-c2ccc(N3CCOCC3)nn2)c1C	103	103
Cc1cc(-c2ccccc2)n2nc(-c3ccccc3)cc2n1	109	109
COc1cccc(NC(=O)c2oc3ccccc3c2NC(=O)c2ccc(OC(C)C)cc2)c1	105	104
CC1=C(C(=O)Nc2ccc(C)cc2C)C(c2ccc(C(=O)O)cc2)n2nc(SCc3ccccc3)nc2N1 (stereo not given)	106	108
CCOc1ccc(NC(=O)C(=O)NCC(c2cccnc2)N2CCc3ccccc32)cc1 (stereo not given)	113	108

Entries listed so far that contain bromine:
mol	PV pol inh	PV pol inh intensity
CC(=O)c1ccc(NC(=O)CSc2nnc3ccc(-c4ccc(Br)cc4)nn23)cc1	105	114
NC(=O)c1ccccc1NC(=O)c1ccc(-c2ccc(Br)cc2)o1	113	116
Cc1ccc(-n2cc3c(c2-c2ccccc2Br)c(=O)n(C)c(=O)n3C)cc1N	112	108
CC(C)(C)c1ccc(-c2nc3cc(NC(=O)c4cccc(Br)c4)ccc3o2)cc1	105	107
COc1cc(C(=O)Nc2ccc3oc(-c4ccc(C)c(Br)c4)nc3c2)cc(OC)c1OC	106	108
